# AID923 – qHTS Assay for Allosteric/Competitive Inhibitors of Caspase-1: Spectroscopic Profiling in AFC Spectral Region. 75,000 compounds, 1.1% hits. compound fluorescence, AFC spectral region (405/520 nm); almost no hit is shown here. Potency, µM (series often up to 57.5 µM), for inactives: at the top dose fluorescence increase, usual class: activators; active = well fitted activation curve with a large enough effect; inconclusive = small, poorly fitted or top-dose-only effect;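 note: potency is the fitted concentration of half-maximal effect; 0% is about no effect; scaled to a free AFC standard on each plate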
#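 Baseline compound fluorescence (AFC region, 405 nm ex/520 nm em) taken from the intercept of kinetic reads with 50 nM caspase-1 and 5 uM Ac-WEHD-AFC; normalized to an on-plate AFC standard curve; compounds titrated up to 57 uM.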
# Resorufin fluor – compounds fluorescent in resorufin spectral region; Compound fluorescence, resorufin region 547/598 nm, buffer; stronger effect = higher value; max dye-equivalent concentration, M; 59,000 compounds, 0.04% hits; active = above 10 nM dye equivalent; inconclusive = 1 to 10 nM; inactive = 1 nM or less; a few of its hits are not listed in these tables; note: highest value over a series up to 38 µM
#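 Read-out: intrinsic compound fluorescence at ex 547/em 598 nm after 15 min at RT in pH 8.0 Tris (100 mM). Values expressed as resorufin-equivalent concentration from per-plate standard series.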
# A488 autofl – compound fluoresces in the A488 spectral region; compound autofluorescence, A488 spectral region, dye equivalency; stronger effect = higher value; max dye equivalency, M; 59,000 compounds, 0.1% hits; active = above 10 nM dye equivalent; inconclusive = 1 to 10 nM; inactive = 1 nM or less; about half of its hits are not listed in these tables;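 note: highest value over a series up to 38 µM; compound alone in buffer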
#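 Readout is A488 dye-equivalent concentration, calibrated by a per-plate six-point Alexa 488 series. Compounds in 100 mM Tris buffer pH 8.0 were incubated 15 min at room temperature. Plates were imaged using 480 nm excitation/540 nm emission filters.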
# A647 fluor – compound fluoresces in the A647 spectral region. Compound fluorescence, A647 channel (570/671 nm), Tris buffer. max dye-equivalent concentration, M. 59,000 tested, under 10 active; active means above 1 µM dye equivalent; inconclusive means 0.1 to 1 µM; inactive means 0.1 µM or less;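 note: values scaled relative to a standard on each plate; highest value over a series up to 38 µM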
#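 Spectral profiling of library compounds in pH 8.0 Tris: 15 min room-temperature incubation, single ex/em pair (570/671 nm), response normalized to Alexa 647 equivalents.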
# TSHR ag – activates the human thyroid stimulating hormone receptor. P16473. Potency, µM (titrated, usually from 57.1 µM), inactives show top-dose activation, usual class: activators. HEK293-CNG-TSHR cells (CNG channel as cAMP sensor), membrane potential dye, cAMP. 73,000 compounds, 0.48% hits; active = well fitted activation curve of enough size with the parental cells flat; inconclusive = any curve in the parental cells; inactive = parental cells flat and receptor cells flat or falling; note: potency is the fitted concentration of half-maximal effect; % of control where 0% means no effect; weak receptor curves with flat parental cells got no call and are not listed
# Target sequence (P16473 whole entry, looked up): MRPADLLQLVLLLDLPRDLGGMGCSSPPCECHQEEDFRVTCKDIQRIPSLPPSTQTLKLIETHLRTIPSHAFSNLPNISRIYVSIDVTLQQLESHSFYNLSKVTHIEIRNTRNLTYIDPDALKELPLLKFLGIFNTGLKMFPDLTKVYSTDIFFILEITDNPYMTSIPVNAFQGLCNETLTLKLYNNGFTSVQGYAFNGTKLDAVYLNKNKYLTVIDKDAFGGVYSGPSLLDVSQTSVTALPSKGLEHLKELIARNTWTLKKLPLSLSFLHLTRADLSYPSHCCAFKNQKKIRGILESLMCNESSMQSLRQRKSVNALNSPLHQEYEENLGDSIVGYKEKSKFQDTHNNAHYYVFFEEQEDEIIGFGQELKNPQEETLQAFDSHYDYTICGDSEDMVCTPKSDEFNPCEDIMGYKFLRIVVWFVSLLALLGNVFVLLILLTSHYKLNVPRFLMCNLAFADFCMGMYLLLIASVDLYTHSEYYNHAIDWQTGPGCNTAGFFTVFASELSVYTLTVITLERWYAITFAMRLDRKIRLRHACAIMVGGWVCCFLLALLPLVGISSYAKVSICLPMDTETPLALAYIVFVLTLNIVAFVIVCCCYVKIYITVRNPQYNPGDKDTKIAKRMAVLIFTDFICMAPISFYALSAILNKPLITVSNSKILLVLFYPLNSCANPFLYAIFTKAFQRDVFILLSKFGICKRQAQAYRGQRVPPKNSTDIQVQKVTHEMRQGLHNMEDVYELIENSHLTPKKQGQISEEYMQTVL
#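 HEK 293 cells stably expressing TSHR and a cAMP-gated CNG channel; parental CNG-only cells as counterscreen. Cells preloaded 60 min with membrane potential dye plus 100 uM RO 20-1724, then compound 30 min; fluorescence read at 590 nm.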
# Starred values were filed as active, the others as inactive; i = inactive; ? = inconclusive; · = not tested or not shown; [ ] = dose if it differs, or a comment. Some of the compounds tested. The share of hits here may be higher or lower than overall.
SMILES,AID923,Resorufin fluor,A488 autofl,A647 fluor,TSHR ag
c1ccc(-n2c(-c3ccco3)nnc2N2CCOCC2)cc1,-0.6%,i,i,5.3e-09,8%
Cn1cnc2c(N3CCCCC3)nccc21,1.2%,i,i,1e-09,?
Cc1cc(Cl)ccc1OCC(=O)Nc1nc(N)nc(N)n1,0.3%[11.5 µM],i,i,1e-09,-1%[11.4 µM]
CCc1nnc2sc(-c3cc(-c4ccccc4)nc4ccccc34)nn12,0.4%,i,i,8.7e-09,28%
COc1ccc(S(=O)(=O)N2Cc3ccccc3CC2C(=O)O)cc1OC (centres undefined),9.6%,·,·,·,-10%
CCC(=O)Oc1ccc(/C(CC)=C(\CC)c2ccc(OC(=O)CC)cc2)cc1,·,i,i,4.8e-08,·
Cc1cccc(-c2nc(CS(=O)CC(=O)N3CCc4ccccc4C3)c(C)o2)c1 (centres undefined),4.1%,·,·,·,8%
COc1ccc(C2=NOC(C(=O)N3CCOCC3)C2)cc1OC (centres undefined),2.2%,i,i,3.1e-08,4%
Cc1ccc(-c2nnn(CC(=O)N(c3ccccc3F)C(C(=O)NC3CCCC3)c3ccco3)n2)o1 (centres undefined),0.4%,i,i,6e-09,18%
CC1(C)Cc2c(C#N)c(NCc3ccco3)nc(-c3ccco3)c2CO1,·,i,i,1e-09,·
CC1CC(C)CN(C(=O)COc2ccc(-c3nnco3)cc2)C1 (centres undefined),-1.1%,i,i,1e-09,14%
COc1ccc(OCC(O)CNCc2ccco2)cc1 (centres undefined),0.2%,·,·,·,16%

# Single records (already shown). Order of screens: AID923 | Resorufin fluor | A488 autofl | A647 fluor | TSHR ag
# CC1(C)Cc2c(C#N)c(NCc3ccco3)nc(-c3ccco3)c2CO1 as listed: · | i | i | 1e-09 | ·
# COc1ccc(OCC(O)CNCc2ccco2)cc1 (centres undefined) as listed: 0.2% | · | · | · | 16%
# Cn1cnc2c(N3CCCCC3)nccc21 as listed: 1.2% | i | i | 1e-09 | ?
# CC1CC(C)CN(C(=O)COc2ccc(-c3nnco3)cc2)C1 (centres undefined) as listed: -1.1% | i | i | 1e-09 | 14%
# Cc1cc(Cl)ccc1OCC(=O)Nc1nc(N)nc(N)n1 as listed: 0.3%[11.5 µM] | i | i | 1e-09 | -1%[11.4 µM]

# Other entries.
SMILES,AID923,Resorufin fluor,A488 autofl,A647 fluor,TSHR ag
COC(=O)NCc1cc2cc(Cl)ccc2[nH]1,-0.2%,i,i,2e-08,4%
Cc1cccc(-n2nc3c(c2NC(=O)c2ccc(S(=O)(=O)N4CCOCC4)cc2)CSC3)c1C,-2.5%,i,i,5.5e-09,-7%
Cc1ccc(S(=O)(=O)n2nc(OC(=O)c3cccs3)cc2N)cc1,0.6%,i,i,1.9e-08,9%
O=C(c1ccc(Cn2cc(Cl)cn2)o1)N1CCN(Cc2ccc3c(c2)OCO3)CC1,1.9%,i,i,5e-09,6%
CC1(C)NC(=O)N(CN2C(=O)NC(C)(C)C2=O)C1=O,-0.8%,i,i,5.6e-09,-2%
C=CCn1c(SCC#N)nc2ccccc2c1=O,-0.4%,i,i,1.2e-08,4%
Cc1oc2cc3oc(=O)c4c(c3cc2c1C)CCC4,-0.4%,i,i,1e-09,18%
N#CCCCCN1c2cccc3cccc(c23)S1(=O)=O,3.0%,i,i,4e-08,6%
COc1cccc(NC(=O)[C@@H]2CCCN2C(=O)C2CCN(S(=O)(=O)c3ccc(C)cc3)CC2)c1,-0.4%,i,i,6.5e-09,3%
CSC1(SC2=NCCN2)SC2(NCCN2)S1,0.8%[11.5 µM],i,i,5.9e-09,-2%[11.4 µM]
O=C(c1nc2ccc([N+](=O)[O-])cc2[nH]c1=O)[C@@H](O)c1ccc2c(c1)OCO2,0.3%[11.5 µM],i,i,1.8e-08,4%[11.4 µM]
c1ccc2c(c1)CNC1(CCCCC1)C2,0.2%,i,i,3.1e-08,10%

# As entered above.
# Cc1oc2cc3oc(=O)c4c(c3cc2c1C)CCC4 in TSHR ag = 18%
# Cc1ccc(S(=O)(=O)n2nc(OC(=O)c3cccs3)cc2N)cc1 in TSHR ag = 9%

# Remaining list, next part
SMILES,AID923,Resorufin fluor,A488 autofl,A647 fluor,TSHR ag
CCOc1ccccc1C1C(C(=O)Nc2ccccc2OC)=C(C)Nc2nnnn21 (centres undefined),1.4%,i,i,1e-09,3%
Cn1c(N)c(C(=O)COC(=O)Cc2ccsc2)c(=O)n(C)c1=O,-3.0%,i,i,4.5e-08,-3%
CCn1cc(C2=NOC(C(=O)Nc3ccc4c(c3)OCO4)C2)c(C)n1 (centres undefined),1.1%,·,·,·,?
COc1ccc(-c2nnc(SCC(=O)N3CCc4ccccc4C3)o2)cc1,2.3%,i,i,1.2e-09,?
O=C(COc1ccc(S(=O)(=O)NC2CCCCC2)cc1)NCc1ccccn1,-1.4%,i,i,1.2e-08,0%
N#Cc1ccccc1Cn1c(=O)n(Cc2ccc(C(=O)NCc3ccco3)cc2)c(=O)c2sccc21,0.8%,·,·,·,4%
COc1ccc(NC(=O)c2ccccc2Cl)cc1NC(=O)CN1CCOCC1,-2.3%,i,i,2.3e-08,0%
CCC(=O)N1CCN=C1SCc1ccc(F)cc1,3.1%,·,·,·,2%
CCOC(=O)N1CCN(S(=O)(=O)c2ccc(C(=O)Nc3nc4ccc(F)cc4s3)cc2)CC1,0.5%,i,i,5.5e-09,23%
CCOC(=O)N1CCN(C(=O)CCCOc2ccccc2)CC1,0.4%,i,i,1.8e-08,9%
C=Cc1ccccc1Cl,2.5%,·,·,·,3%
OCc1nc2ccccc2n1CC(O)Cn1ccc2ccccc21 (centres undefined),-0.9%,i,i,2.2e-08,-10%
Cc1nonc1NC(=O)CSc1ccc(-c2ccccc2)nn1,-1.8%,i,i,1e-09,-15%
COc1ccc(CCNC(=O)Cn2c(=O)oc3ccccc32)cc1OC,0.3%,i,i,1e-09,-3%
CCOC(=O)C(NC=O)(NC(C)(C)C)C(=O)OCC,·,i,i,4e-08,·
Fc1ccccc1-c1nc(NCCCN2CCOCC2)c2ccccc2n1,·,i,i,1.3e-09,·
CCCOCC(C)O (centres undefined),2.8%,·,·,·,3%
Cc1cccc(N2CCN(C(=O)c3ccc(NC(=O)C4CCCO4)cc3)CC2C)c1 (centres undefined),-0.6%,i,i,3.8e-08,2%[11.4 µM]
O=C(C1COc2ccccc2O1)N1CCc2ccccc21 (centres undefined),-0.6%,i,i,1e-09,27%
Cn1c(Cn2c(=O)sc3ccccc32)nnc1SCC(=O)Nc1ccc(F)cc1,-0.3%,·,·,·,-2%
CCn1c(Cn2nnc(-c3ccccc3)n2)nnc1SCC(=O)Nc1cccc(C(C)=O)c1,0.5%,i,i,8.2e-09,0%
COc1cccc(C2CC(c3c(Cl)cccc3Cl)n3nc(N)nc3N2)c1 (centres undefined),1.0%,·,·,·,30%
CC(C)CCN1C(=O)c2ccc(C(=O)OCn3nnc4ccccc4c3=O)cc2C1=O,0.9%,i,i,4.1e-08,-10%
CCc1ccccc1NC(=O)CSc1nc2c(c(-c3ccco3)c1C#N)CCCC2,0.4%,i,i,1.6e-09,?
C=CCC1c2cccc(C(=O)O)c2C(=O)N1c1cccc(C)c1 (centres undefined),-0.7%,i,i,1e-09,0%
COc1ccccc1NC(=O)CN(Cc1ccco1)C(=O)c1cccs1,1.4%,i,i,1e-09,?
CCOC(=O)N1CCN(C(=O)COc2ccc(Br)cc2)CC1,0.1%,·,·,·,-2%[11.4 µM]
CCCCC12CN3CC(C)(CN(C1)C31C(=O)N(C)c3ccc(C)cc31)C2=O (centres undefined),-1.5%,i,i,4.3e-09,·
C[C@@H](C(=O)Nc1ccc2ccccc2c1)[C@@H]1C[C@@]1(C)[C@@H](NC(=O)c1ccncc1Cl)c1ccccc1,-1.9%,·,·,·,10%
COc1cccc(N2CCCn3c2nc2c3c(=O)n(CCN3CCOCC3)c(=O)n2C)c1,-1.5%,i,i,6.3e-09,0%
CCOC(=O)C1CCN(c2ncnc3c2cnn3-c2ccc(OC)cc2)CC1,·,i,i,1e-09,·
CCN1CCN(Cc2cc(=O)oc3ccc(Cl)cc23)CC1,1.0%,i,i,2.2e-08,15%
CC(=O)CC(C)(C)n1nnc(-c2ccccc2)n1,-0.2%,i,i,2.9e-09,7%
Oc1ccccc1-c1cc(-c2ccc3c(c2)OCCO3)n[nH]1,-4.5%,i,i,1.5e-08,0%
O=c1c2ccccc2oc2nc(C3CCCCC3)n(Cc3ccco3)c(=O)c12,0.5%,i,i,1e-09,·
Cn1c(=O)[nH]c(=O)c2c1nc(NCCCn1ccnc1)n2Cc1ccccc1,-3.0%,i,i,1.5e-08,0%

# Reprinted from the entries so far, 2 compounds:
SMILES,AID923,Resorufin fluor,A488 autofl,A647 fluor,TSHR ag
c1ccc(-n2c(-c3ccco3)nnc2N2CCOCC2)cc1,-0.6%,i,i,5.3e-09,8%
Cn1cnc2c(N3CCCCC3)nccc21,1.2%,i,i,1e-09,?

# Next part:
SMILES,AID923,Resorufin fluor,A488 autofl,A647 fluor,TSHR ag
COc1cccc(CN2CCN(CC(=O)Nc3ccccc3Cl)CC2)c1,-0.1%,i,i,3.3e-09,?
CS(=O)(=O)Nc1ccc(N2CCCCC2)c(Cl)c1,-2.0%,i,i,6.8e-08,-3%
COC(=O)c1ccc(C)c(NC(=O)Cn2cnc3ccccc3c2=O)c1,0.0%,i,i,1e-09,-3%[11.4 µM]
CCN(CC)S(=O)(=O)c1cccc2nsnc12,1.9%,i,i,1.3e-09,7%
CCN(CC)CCNC(=O)CS(=O)Cc1nc(-c2ccccc2Cl)oc1C (centres undefined),1.6%,i,i,5e-09,?
O=C(COc1ccc(F)cc1)NC1CC1,0.0%,i,i,1.1e-08,-3%
Cc1ccc2c(c1)N(CC(=O)N1CCCc3ccccc31)C(=O)C(C)O2 (centres undefined),-0.8%,i,i,4.4e-09,?
CCC(=O)N(CCCN(C)C)c1nc(-c2cc(OC)ccc2OC)cs1,-3.8%,i,i,1.7e-08,0%
COc1cc(C(=O)Nc2nc(-c3cccs3)cs2)cc(OC)c1OC,1.4%,i,i,4.7e-08,?
CC(C)c1cc(C(=O)NCc2cccnc2)no1,-0.7%,i,i,5.5e-09,-2%
COCCNC(=O)Cn1c(=O)n(CCC(=O)NCCc2ccccc2)c(=O)c2ccccc21,-0.3%,i,i,1e-09,1%[11.4 µM]
CCCCC(c1nnnn1CCOC)N1CCN(C(=O)c2ccco2)CC1 (centres undefined),0.0%,i,i,7.8e-09,5%
CC1CN(C2CCN(S(=O)(=O)c3ccccc3)CC2)CC(C)O1 (centres undefined),·,i,i,4.1e-09,·
COc1ccc(C2(O)CCN(Cc3nnnn3Cc3ccc(F)cc3)CC2)cc1,-0.6%,i,i,1.3e-09,-5%
COc1cccc(N)c1,0.4%,·,·,·,-14%
COc1ccc(-c2nnn(Cc3nn[nH]n3)n2)cc1OC,1.2%,i,i,1e-09,-2%
COc1cc(C(=O)Nc2ccncc2)cc(OC)c1OC,-0.6%,i,i,7.4e-09,-2%
Nc1nonc1-c1noc(N2CCCCC2)n1,1.0%,i,i,7.5e-09,?
CN1CCN(C(=O)C23CC4CC(CC(C4)C2)C3)CC1,-0.3%,·,·,·,-1%
O=C(O)c1ccccc1[N+](=O)[O-],3.5%,·,·,·,-4%
O=C(Cc1c(F)cccc1Cl)Nc1cccnc1,-1.2%,i,i,1e-09,·
O=C(CCCN1C(=O)c2ccccc2C1=O)Nc1ccc(S(=O)(=O)N2CCOCC2)cc1,0.0%,i,i,3.6e-09,1%
COCCn1c(SCC(=O)OCc2ccccc2)nc2c1c(=O)[nH]c(=O)n2C,3.9%,·,·,·,6%
O=C(O)c1ccc(Cl)cc1Cl,15%,·,·,·,?
CNc1nc(-c2cccnc2)nc2ccccc12,0.8%,i,i,1e-09,1%
CCNc1nc(SC(C)C(=O)OC)nc(N2CCOCC2)n1 (centres undefined),-0.3%,i,i,1.5e-09,-1%
